Bioassay records as filed in PubChem.
MgrA DNA FP: S. aureus MgrA-DNA binding modulation; hit rate 0.13% among 84,000; inhibition, %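 (about 10 µg/mL by stock and volumes)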; fluorescence polarization;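 active means above 50% in either of two replicates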;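 further: 0% = protein plus DNA without compound and 100% = DNA alone without protein; higher means less MgrA bound to DNA so lower polarization; one replicate is shown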
S aureus helic: S. aureus DNA helicase inhibition. purified S. aureus helicase, fluorescence unwinding assay; about half of the hits fall short of the stated cut. inhibition, %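 (tested at about 80 µM)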. hit rate 0.05% among 120,000. AID 485395;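 active means both duplicates at 50% or more, or one of them with a favoured structure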;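 further: 0% = mean of negative control wells and 100% = mean of positive control wells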
Numbers without * were called inactive. These rows are one share of the data (hit frequency here may not be typical).

Start of the data: the first 2 records (preview)
Screening CCOC(=O)Cc1ccc([N+](=O)[O-])cc1 returned MgrA DNA FP -1.9.
For COc1cccc(NC(=O)CSC2=C(C#N)C(c3ccccc3F)C3=C(CCCC3=O)N2)c1 (stereo unspecified) the results were S aureus helic -5.0.

Results, repeating the preview:
Screening CCOC(=O)Cc1ccc([N+](=O)[O-])cc1 returned MgrA DNA FP -1.9.
For COc1cccc(NC(=O)CSC2=C(C#N)C(c3ccccc3F)C3=C(CCCC3=O)N2)c1 (stereo unspecified) the results were S aureus helic -5.0.
COC(=O)c1ccc(CSc2nc3ccccc3c(=O)[nH]2)cc1 was read as S aureus helic 6.0.
O=C(/C=C/c1cn(-c2ccccc2)nc1-c1cccs1)NC1CCC(O)CC1 (stereo unspecified) was read as MgrA DNA FP 0.0 and S aureus helic -19.0.
`O=c1[nH]c(CN2CCCC2)nc2c(Br)cc(Br)cc12` gave S aureus helic -4.0.
Screening CCOC(=O)c1cc2cc(OC(F)(F)F)ccc2[nH]1 returned MgrA DNA FP 2.5.
Screening C/C(=N\NC(=O)C1CC1)c1ccccc1O returned S aureus helic -8.0.
For O=C(O)CCSc1nc2ccccc2n1C1CCCCC1 the results were MgrA DNA FP 0.9 and S aureus helic 0.0.
Screening CCc1ccc(OCCCC(=O)Nc2ncn[nH]2)cc1 returned MgrA DNA FP 3.7 and S aureus helic 0.0.
`COc1cc(/C=C2\N=C(c3ccc(OC)c([N+](=O)[O-])c3)OC2=O)ccc1OC(C)=O` gave MgrA DNA FP 3.2.
Screening COC(=O)c1ccccc1S(=O)(=O)NC(=O)c1ccccc1 returned S aureus helic 0.0.
S=C(c1cccs1)N1CCOCC1 was read as MgrA DNA FP 10.7 and S aureus helic 8.0.
O=C(CSc1ncn[nH]1)Nc1ccccc1 was read as MgrA DNA FP -0.9 and S aureus helic 14.0.
Screening Cc1cc(C)c(NCc2ccccc2O)c(C)c1 returned S aureus helic 12.0.
`CCOC(=O)c1csc(NC(=O)c2ccccc2)n1` gave S aureus helic -18.0.
NNC(=O)c1cc(-c2ccccc2)nc2ccccc12 was read as MgrA DNA FP 0.5 and S aureus helic 7.0.
For O=C(NCc1cccnc1)C1=CCN(S(=O)(=O)c2ccccc2)CC1 the results were MgrA DNA FP 1.0 and S aureus helic -9.0.
`Cc1ccc(S(=O)(=O)NCCc2csc(C)n2)cc1` gave MgrA DNA FP -0.9 and S aureus helic 11.0.
`Brc1cccc(C=NN2CCN(c3ccccn3)CC2)c1` gave S aureus helic 28.0.
For CSc1nn2c(=O)c(C)nnc2s1 the results were S aureus helic 13.0.
Screening C=Cn1ccc(CCC)c1-c1cccs1 returned S aureus helic -47.0.
CNC(=O)COC(=O)c1c(-c2c(F)cccc2Cl)noc1C was read as S aureus helic 7.0.
`O=C(O)CSc1c2c(nc3cc(C(=O)Nc4ccc(F)c(Cl)c4)ccc13)CCCC2` gave MgrA DNA FP 3.7 and S aureus helic 17.0.
`Cc1ccc2scc(CC(=O)O)c2c1` gave MgrA DNA FP 1.9 and S aureus helic 16.0.
For CN1c2ccccc2C(=O)/C(=C\Nc2ccc(F)cc2)S1(=O)=O the results were MgrA DNA FP -1.6.
For CCOC(=O)c1cn2nc(Oc3ccccc3)ccc2n1 the results were MgrA DNA FP -1.4.
Screening Cc1cc2nc(COC(=O)C(C)C)cc(=O)n2o1 returned S aureus helic 4.0.
`CCOC(=O)C1CCN(C(=O)COC(=O)c2ccc(N(C)C)cc2)CC1` gave S aureus helic 23.0.
`COc1ccc(CNC(=O)c2cc(Nc3ccccc3OC)nc3ccccc23)cc1` gave MgrA DNA FP 0.2 and S aureus helic 16.0.
`O=C(CSc1n[nH]c(=O)n1C1CC1)NC1CCCC1` gave S aureus helic -5.0.
Screening N#Cc1ccccc1CSCCNc1ncnc2c1oc1ccccc12 returned S aureus helic 12.0.
O=C1OC2(c3ccccc3)C3CCCC2C13 was read as MgrA DNA FP 4.3 and S aureus helic -1.0.
For O=[N+]([O-])c1cc(C(F)(F)F)ccc1Sc1ccc(Cl)cc1 the results were MgrA DNA FP -0.3.
CC1CCCCN1S(=O)(=O)c1ccc(Cl)cc1 (stereo unspecified) was read as MgrA DNA FP 1.9 and S aureus helic -2.0.
Screening O=C(CC1CCC1)Nc1ccc(Oc2ccccc2)cc1 returned MgrA DNA FP 0.9 and S aureus helic -17.0.
For CCOC(=O)NC1CCN(CC)CC1 the results were MgrA DNA FP -0.7 and S aureus helic 5.0.
For CCc1nc2cc(C)c(C)cc2nc1CC the results were S aureus helic -2.0.
N#Cc1sc2nc(-c3ccccc3)ccc2c1N was read as MgrA DNA FP -0.1.
CC1(C)CC(=O)C(CC2=C(O)CC(C)(C)CC2=O)=C(O)C1 was read as MgrA DNA FP -0.6 and S aureus helic 4.0.
`N#Cc1cc(C#N)c(SCC(=O)N(c2ccccc2)C2CCCCC2)nc1N` gave S aureus helic -15.0.
Screening O=[N+]([O-])c1ccc(N2N=C(c3ccccc3)CC2c2ccccc2O)cc1 (stereo unspecified) returned MgrA DNA FP 2.9.
For COc1ccc(-n2cc(C(=O)NC(C)CCc3ccco3)c3ccccc3c2=O)cc1 (stereo unspecified) the results were S aureus helic -9.0.
CCn1c2ccccc2c2cc(C=Nc3cccc(C#N)c3)ccc21 was read as MgrA DNA FP -1.3 and S aureus helic -10.0.
COc1cc(C2NC(=O)NC(C)=C2C(=O)OCCOC(C)C)ccc1OCc1ccccc1 (stereo unspecified) was read as MgrA DNA FP 0.8.
Screening O=C(NCc1ccccn1)c1ccc([N+](=O)[O-])cc1 returned MgrA DNA FP 0.5.
Screening O=S1(=O)CCC(NCc2ccccc2)C1 (stereo unspecified) returned MgrA DNA FP 15.5 and S aureus helic 4.0.
Screening Cc1[nH]nc(N)c1-c1ccccc1 returned MgrA DNA FP -1.7.
Screening CCN(CC)c1ccc(NC(=O)CSC(=O)c2ccccc2)cc1 returned MgrA DNA FP 2.1 and S aureus helic -13.0.
`Cc1ccc2c(c1)CCCN2C(=O)c1scc(S(=O)(=O)c2ccc(Cl)cc2)c1C` gave MgrA DNA FP 4.0.
Screening CCSc1ccc(-c2noc(C(C)(C)C)n2)cn1 returned MgrA DNA FP 1.7.
For CC(C)CSc1nnc2c3ccccc3n(C)c2n1 the results were MgrA DNA FP -1.1 and S aureus helic 12.0.
CC1CCCCN1C(=O)CSc1nc(C2CC2)nc2ccccc12 (stereo unspecified) was read as MgrA DNA FP -1.1 and S aureus helic 4.0.
`OC(CNCCNc1nccc(C(F)(F)F)n1)Cn1ccc2ccccc21` (stereo unspecified) gave MgrA DNA FP -0.1.
`O=C(CCC1CC(=O)Nc2ccccc21)NCc1ccccc1` (stereo unspecified) gave MgrA DNA FP 5.2 and S aureus helic 18.0.
Screening COc1ccc(/C(C)=N/N=C(\C)c2ccc(OC)cc2)cc1 returned MgrA DNA FP -3.1.
`COc1ccc2c(c1)/C(=C/c1c(O)n(C)c(=O)c3ccccc13)C=N2` gave MgrA DNA FP -2.9.
`O=C(NCc1ccc2c(c1)OCO2)c1c[nH]c2ccc(S(=O)(=O)N3CCOCC3)cc2c1=O` gave S aureus helic 9.0.
Screening CC1=C/C(=N\Nc2ccc(C(=O)O)cc2)CC1 returned S aureus helic 2.0.
For CN(C)C(=O)CSc1ccccc1C(=O)O the results were S aureus helic -5.0.
For Cc1cc2c(n1-c1ccc(C(=O)NC(C)C)cc1)CCCC2 the results were S aureus helic -10.0.
For O=c1oc(-c2ccco2)cc(-c2ccccc2)c1-c1ccccc1 the results were S aureus helic 14.0.
COCCOC(=O)C1=C(C)NC2=C(C(=O)CC(c3ccc(OC)cc3)C2)C1c1ccc2c(c1)OCO2 (stereo unspecified) was read as MgrA DNA FP 0.1.
C=CCn1c(=NC(=O)/C=C/c2ccccc2)sc2cc(S(N)(=O)=O)ccc21 was read as S aureus helic 6.0.
Screening O=C(CCOc1ccccc1)Nc1ccccc1N1CCOCC1 returned S aureus helic -1.0.
Screening Cc1c(C#N)c2ccccc2n1CC(=O)N1CCCCC1C (stereo unspecified) returned MgrA DNA FP -2.1 and S aureus helic 15.0.
Screening Cc1nc2ccc(Br)cc2c(=O)n1-c1ccccc1N1CCCCC1 returned MgrA DNA FP -0.3.
Screening N#Cc1ccc(C(=O)OCC(=O)Nc2ccccc2C#N)cc1 returned S aureus helic 3.0.
`O=C(O)c1cccc(-n2cnc3ccccc3c2=O)c1` gave S aureus helic 6.0.
`N#C/C(=C\c1ccccc1)C(=O)Nc1cccc2c1C(=O)NC2=O` gave S aureus helic -4.0.
For CCCC(=O)NCCc1cc2cc(C)c(C)cc2[nH]c1=O the results were S aureus helic 2.0.
COc1ccccc1Nc1cccc2nonc12 was read as MgrA DNA FP 7.6 and S aureus helic 7.0.
For O=C(COc1cc(C(F)(F)F)cc(C(F)(F)F)c1)Nc1ccc2c(c1)OCO2 the results were S aureus helic -2.0.
CC1=C(C(=O)OCc2ccccc2)C(/C=C/c2ccccc2)N2C(=O)CCSC2=N1 (stereo unspecified) was read as MgrA DNA FP 0.3 and S aureus helic -1.0.
CCc1cc2c(COC(=O)C3CC(=O)N(Cc4ccco4)C3)cc(=O)oc2cc1O (stereo unspecified) was read as S aureus helic 7.0.
For Nn1c(SCC(=O)N2CCc3ccccc32)nnc1C(F)(F)F the results were S aureus helic 11.0.
Cn1nc(C(=O)NCCN2CCC(Cc3ccccc3)CC2)c2c1-c1ccccc1OC2 was read as MgrA DNA FP 8.2 and S aureus helic 0.0.
`CC1CCN(c2cn[nH]c(=O)c2Br)CC1` gave S aureus helic 20.0.
CCOC(=O)c1cc(CN)c(C)o1 was read as MgrA DNA FP -0.5 and S aureus helic 16.0.
COC(=O)c1ccc(C(=O)O)s1 was read as MgrA DNA FP -13.6 and S aureus helic 3.0.
C=CCNc1nc(Nc2ccc(-c3nc4ccccc4o3)cc2)nc(OCC)n1 was read as MgrA DNA FP 1.4 and S aureus helic 16.0.
For CCC(C)NC(=O)c1ccc(NC(=O)C2=C(C)OCCS2)cc1 (stereo unspecified) the results were S aureus helic 20.0.
COc1ccc(-c2noc(CN3CCC(C(=O)Nc4ccccc4)CC3)n2)cc1OC was read as S aureus helic 1.0.
For COc1ccc(Oc2ncccc2[N+](=O)[O-])cc1 the results were MgrA DNA FP -1.7.
For CC1=NN(c2ccccc2)C(=O)/C1=C/N(C)C the results were MgrA DNA FP -2.3.
`CC1(C)NC(=O)c2ccccc2O1` gave S aureus helic 27.0.
`COc1ccc(CNC(=O)CN2CCC(=O)CC2)cc1` gave S aureus helic -29.0.
For O=C(NCCN1CCOCC1)c1cc2c(s1)-c1ccccc1OC2 the results were S aureus helic 33.0.
Cn1c(SCC(=O)NC2CC2)nnc1-c1cccs1 was read as MgrA DNA FP 6.5 and S aureus helic 24.0.
Screening CCC(NC(=O)c1ccccc1)c1ccccc1 (stereo unspecified) returned MgrA DNA FP 1.7 and S aureus helic 3.0.
Screening C=C1SC(Nc2ccc(C)cc2C)=NC1(CC)CC returned MgrA DNA FP 2.1.
COC(=O)c1ccc2c(=O)n(CCO)c(SCCOc3ccc(Br)cc3)nc2c1 was read as S aureus helic -3.0.
Screening COc1ccc(CCNC(=O)c2cc3c(=O)n(C)c4ccccc4c3n2C)cc1OC returned MgrA DNA FP 1.1 and S aureus helic 16.0.
`CN(C)S(=O)(=O)c1cccc(CSc2nnc(N)s2)c1` gave S aureus helic -11.0.
`NC(=O)c1ccc[n+]([C@@H]2O[C@H](COP(=O)([O-])OP(=O)(O)OC[C@H]3O[C@@H](n4cnc5c(N)ncnc54)[C@H](OP(=O)(O)O)[C@@H]3O)[C@@H](O)[C@H]2O)c1` gave MgrA DNA FP -0.1.
`O=C(COc1ccccc1)N1CCc2ccccc21` gave S aureus helic 5.0.
`CC(c1ccco1)N(C(=O)c1ccc(F)cc1)c1ccccn1` (stereo unspecified) gave MgrA DNA FP 2.7 and S aureus helic -22.0.
For O=C(O)/C=C/C(=O)NNc1ncnc2ccccc12 the results were S aureus helic -6.0.
Screening COC(=O)C(CO)Nc1ncnc2onc(-c3ccc(F)cc3)c12 (stereo unspecified) returned S aureus helic -23.0.
`CCOC(=O)N1CCC(NC(=O)C(C)n2c3ccccc3c3cnn(C)c(=O)c32)CC1` (stereo unspecified) gave S aureus helic -29.0.
For COc1ccc(-c2cc(-c3ccccc3)nc(N3CCCCC3)n2)cc1OC the results were MgrA DNA FP 1.2.

A draw from above in order of length of the SMILES, rising.
COC(=O)c1ccc(C(=O)O)s1 was read as MgrA DNA FP -13.6 and S aureus helic 3.0.
`Brc1cccc(C=NN2CCN(c3ccccn3)CC2)c1` gave S aureus helic 28.0.
`NC(=O)c1ccc[n+]([C@@H]2O[C@H](COP(=O)([O-])OP(=O)(O)OC[C@H]3O[C@@H](n4cnc5c(N)ncnc54)[C@H](OP(=O)(O)O)[C@@H]3O)[C@@H](O)[C@H]2O)c1` gave MgrA DNA FP -0.1.

Quoted from the results shown (6 entries):
COC(=O)c1ccc2c(=O)n(CCO)c(SCCOc3ccc(Br)cc3)nc2c1 was read as S aureus helic -3.0.
Screening COc1ccc(CCNC(=O)c2cc3c(=O)n(C)c4ccccc4c3n2C)cc1OC returned MgrA DNA FP 1.1 and S aureus helic 16.0.
`CN(C)S(=O)(=O)c1cccc(CSc2nnc(N)s2)c1` gave S aureus helic -11.0.
`NC(=O)c1ccc[n+]([C@@H]2O[C@H](COP(=O)([O-])OP(=O)(O)OC[C@H]3O[C@@H](n4cnc5c(N)ncnc54)[C@H](OP(=O)(O)O)[C@@H]3O)[C@@H](O)[C@H]2O)c1` gave MgrA DNA FP -0.1.
`O=C(COc1ccccc1)N1CCc2ccccc21` gave S aureus helic 5.0.
`CC(c1ccco1)N(C(=O)c1ccc(F)cc1)c1ccccn1` (stereo unspecified) gave MgrA DNA FP 2.7 and S aureus helic -22.0.

The list goes on.
N#Cc1c(SCC(=O)NCC2CCCO2)nc2c(c1-c1ccco1)CCCC2 (stereo unspecified) was read as S aureus helic 22.0.
CCc1ccc(C(=O)Nc2nnn(CC)n2)cc1 was read as MgrA DNA FP -2.4 and S aureus helic 8.0.
CCN(CC)C(=O)CCN1C(=O)c2cc(Cl)c(Cl)cc2C1=O was read as MgrA DNA FP 0.3 and S aureus helic 4.0.
Screening CN(C(=O)CN1C(=O)c2ccccc2C1=O)c1ccccc1 returned S aureus helic 5.0.
O=C(CSc1nc2cc(Cl)ccc2s1)Nc1ccnn1C1CCCC1 was read as S aureus helic 22.0.
